Prx2 Sm inh: Schistosoma Mansoni Peroxiredoxins (Prx2); Schistosoma mansoni peroxiredoxin 2 (Prx2); S. mansoni Prx2 activity coupled to TGR/GSH (TGR is thioredoxin glutathione reductase), NADPH fluorescence loss, qHTS; some inactives read as strong as hits; Potency, µM; 65,000 compounds, 0.07% hits; AID 448, 2006; active means full or partial inhibition curve with a strong effect at the top dose; inconclusive means weaker partial or single-point curve; inactive means no accepted curve; further: series up to 57 µM; many of its hits are not listed in these tables
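Purified S. mansoni TGR and Prx2 in pH 7.4 phosphate buffer with EDTA and Tween-20 were preincubated with compounds for 15 min. Further NADPH/GSH was added, then a 2.5 mM H2O2 aliquot initiated turnover, followed kinetically by NADPH fluorescence.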
LT uptake inh: qHTS Assay for Anthrax Lethal Toxin Internalization; Cells, anthrax lethal toxin internalization, FRET ratio (460/530); Potency, µM (highest dose often 40 µM), for the others: at the top dose activity change, negative = inhibition, most hits filed as inhibitors; 70,000 compounds, 0.67% hits; active = well fitted falling ratio curve with the 530 nm signal flat; inconclusive = other ratio curves, or a change in one channel alone; inactive = flat curves in the ratio and both channels; the % refers to the ratio; further: on the % scale 0 is the no-effect control and ±100 the full control effect; nearly all actives have a fitted effect of over 50% in size; tested in ME-180 cells; beta-lactamase reporter
An asterisk follows results filed as active; ? = inconclusive; · = not tested or not shown; & = joins results of further samples; [ ] = another dose, or the depositor's remark. Potency means the concentration at half of the fitted maximal effect. Some of the compounds tested (hit frequency here may not be typical).

SMILES | Prx2 Sm inh | LT uptake inh
COCCNC(=O)c1cn(C)c2ccc(S(=O)(=O)N(C)C3CCCCC3)cc2c1=O | >57 | -2%
O=C(Nc1cccc(Oc2c(F)c(F)c(F)c(F)c2F)c1)N1C[C@@H]2C[C@@H](C1)c1cccc(=O)n1C2 | >57 | -6%
C=CCn1c(Cc2ccc(OC)cc2)nnc1SCc1nc2ccccc2c(=O)[nH]1 | >57 | -13%
CN1CCN(c2ccc(NC(=O)c3ccc4c(c3)OCO4)cc2)CC1 | >57 | 0%
COC(=O)[C@H]1[C@H]2C[C@H]3c4[nH]c5ccccc5c4CCN3C[C@@H]2CC[C@@H]1O | >57&>57 | -1%&-2%
Fc1ccc(-c2nnc(-c3ccc(Cl)cc3Cl)o2)cc1 | >57 | ?
CCc1c(C)nc(SCCOc2ccc(OC)cc2)[nH]c1=O | >57 | 16%
CCc1nnc(NC(=O)CSc2nc3c(cc2C#N)CCCC3)s1 | >57 | -4%
Cn1c(=O)c2c(nc(NCCO)n2C)n(C)c1=O | >57 | ·
Cc1oc(-c2ccccc2F)nc1CS(=O)(=O)CC(=O)N1CCN(Cc2ccccc2)CC1 | >57 | -12%
Cc1noc(C)c1-c1ccc2ncnc(NCc3ccccc3)c2c1 | >57 | ?
COc1ccc(-c2nnc(SCc3cccc(C#N)c3)o2)cc1 | >57 | 11%
CCOC(=O)c1[nH]c(C)c(CN(CCc2ccccc2)C(=O)CCC(=O)O)c1C | >57 | 3%
O=C(NCc1ccc2c(c1)OCO2)c1cc2ncc(Br)cn2n1 | >57 | -10%
Cc1nc(N2CCOCC2)c2nc(-c3ccccc3)n(CCN(C)C)c2n1 | · | 10%

Overlap with the part before: two entries; new compounds follow.
SMILES | Prx2 Sm inh | LT uptake inh
O=C(NCc1ccc2c(c1)OCO2)c1cc2ncc(Br)cn2n1 | >57 | -10%
Cc1nc(N2CCOCC2)c2nc(-c3ccccc3)n(CCN(C)C)c2n1 | · | 10%
CCN(CC)C(=O)C1CCCN(Cc2ccccc2C(F)(F)F)C1 (configuration not stated) | >57 | -13%
COc1ccc(Nc2nc(N3CCCC3)nc3ccccc23)c(OC)c1 | >57 | 13µM*
Cc1cccc(C(=O)Nc2ccc(O)cc2)c1 | >57 | 4%
CCN(CC)S(=O)(=O)c1ccc(C(=O)NCC(c2cccs2)N2CCOCC2)cc1 (configuration not stated) | >57 | -1%
Nc1ccc(S(=O)(=O)Nc2ccnn2-c2ccccc2)cc1 | >57&>57 | 12%[3.58 µM]
Cc1nc2cc(-c3cccc(Cl)c3)nn2c(N2CCN(C(=O)c3ccco3)CC2)c1C | >57 | 8%
O=C(O)C1CC(=O)N(CCOc2ccccc2)C1 (configuration not stated) | · | -9%
COC(=O)CN(c1ccc(C(C)C)cc1)S(=O)(=O)c1c(C)[nH]c(=O)[nH]c1=O | >57 | -12%
CCCn1c(SCC(=O)Nc2nnc(C(C)C)s2)nc2c1c(=O)n(C)c(=O)n2C | >57 | -15%
CC/C=C/C#N | · | -10%
CC1(C)C2CCC1(CS(=O)(=O)NCc1ccc(C(=O)O)cc1)C(=O)C2 (configuration not stated) | >57 | 4%
CCN(CC)CCCN1C(=O)C(O)=C(C(=O)c2ccc(C)o2)C1c1ccco1 (configuration not stated) | >57 | 3%
COCCn1c(=O)c(-c2cccs2)nc2cnc(Nc3ccccc3)nc21 | >57 | ?
O=C(NCc1cccs1)c1cc(-c2ccccc2)on1 | >57 | 2%
CCC/C=C(\CCC)C(NP(=O)(c1ccccc1)c1ccccc1)c1ccc(-c2ccccc2)cc1 (configuration not stated) | >57 | -10%

Complete entries, looked up by structure.
Results for Nc1ccc(S(=O)(=O)Nc2ccnn2-c2ccccc2)cc1 → Prx2 Sm inh: >57&>57; LT uptake inh: 12%[3.58 µM]
Results for O=C(NCc1cccs1)c1cc(-c2ccccc2)on1 → Prx2 Sm inh: >57; LT uptake inh: 2%

Later entries
SMILES | Prx2 Sm inh | LT uptake inh
COC(=O)c1ccccc1NC1OC(=O)c2ccccc21 (configuration not stated) | >57 | 1%
O=C(O)c1cncc(C(=O)O)c1 | >57 | -1%[8 µM]
COC(=O)[C@H]1C[C@@H]1[C@H](NC(=O)Oc1ccc(F)cc1)c1ccccc1 | >57 | -7%
CCN(CC)CCCN1C(=O)C(=O)/C(=C(/O)c2cnn(-c3ccccc3)c2C)C1c1ccncc1 (configuration not stated) | >57 | -1%
Fc1ccc(C2CC(c3ccco3)n3ncnc3N2)cc1 (configuration not stated) | >57 | -11%
COc1ccc(CNC(=O)C2CCN(C(=O)[C@@H](CC(C)C)NC(=O)OC(C)(C)C)CC2)cc1 | >57 | -9%
CCSc1nnc(NC(=O)C2CCCCC2)s1 | >57 | 8%
COc1ccc(CCC(=O)N2CCC3(CC2)OCCO3)cc1 | >57 | 6%
COc1ccc(NC(=O)Cn2c(=O)sc3ccccc32)c(OC)c1 | >57 | -14%
CC(=O)Cc1ccccc1OC(=O)c1ccco1 | >57 | -9%
CC(C)CCOC(=O)c1c(N)n(CC2CCCO2)c2nc3ccccc3nc12 (configuration not stated) | >57 | ?
CC(C)(C)NC(=O)CSc1nncn1-c1ccccc1 | >57 | -11%
Oc1ccc(Nc2nc(-c3ccc(Cl)cc3)cs2)cc1 | · | ?
CCCc1[nH]nc2c1C1(C(=O)N(CC(N)=O)c3ccccc31)C(C(=O)OC)=C(N)O2 (configuration not stated) | >57 | 3%
Cc1sc(N)c(C(=O)c2cccc(C(F)(F)F)c2)c1C | >57 | ?
CCOC(=O)c1c(COc2ccccc2)oc2ccc(O)cc12 | >57 | ?
COCC(=O)c1[nH]c2ccccc2c1C | ? | ?
CN=C(Nc1cc(C)nn1CCC#N)c1ccccc1 | >57 | -4%
Cc1ccc(OCC(=O)Nc2ccc(N3CCOCC3)cc2)cc1 | · | -1%
CC(C)(C)c1nc(SCC(=O)NCc2ccco2)c2ccccc2n1 | >57 | ?
O=C1CCCN1c1ccc(S(=O)(=O)N2CCC(c3ccccc3)CC2)cc1 | >57 | 10%
COc1ccccc1-c1c(C)nn2c(NCCN3CCCC3)cc(C)nc12 | >57 | 6%
Cc1ccc(-c2noc(CCC(=O)NCCN3CCOCC3)n2)cc1 | >57 | 0%
CC(=O)Nc1cc(N2C(=O)CCC2=O)ccc1Cl | · | -6%
CCOC(=O)c1ccc(Oc2nc(NC)nc(SC)n2)cc1 | >57 | -2%
COc1ccc2nc(NC(=O)CSc3nc4ccccc4o3)sc2c1 | >57 | -10%
CC(C)N1C(=O)CCC1C(=O)NCCc1ccc(Cl)cc1 (configuration not stated) | >57 | -3%
CCCCOc1ccc(S(=O)(=O)n2c(C)nc3ccccc32)cc1 | >57 | ?
O=C1c2sc3nc4ccccc4n3c2C(=O)N1c1ccccc1Cl | >57 | ?
COc1cccc(OC)c1OCCCc1c(C)n[nH]c1C | >57 | ?
Cc1ccc(OCC(=O)NCc2ccccn2)cc1 | >57 | 12%
CN1CCN(C(=O)CN2C(=O)CC(C)(C)S(=O)(=O)c3ccccc32)CC1 | >57 | -4%
CCOC(=O)CCN1C(=O)[C@H]2[C@H]3[C@H](O)[C@H](O)C/C(=N/OCC(C)C)[C@@H]3CC[C@@H]2C1=O | · | 0%[1.6 µM]
COc1ccc(NC(=O)c2ccc(=O)oc2)cc1 | >57 | 3%
Cn1c(=O)c(=O)n(C)c2cc(S(=O)(=O)N3CCN(Cc4ccccc4)CC3)ccc21 | >57 | -11%
CC1(C)NC(=O)NC2(C)NC(=O)NC(C)(C)C12 (configuration not stated) | >57 | ·
CCOC(=O)N1CCN(c2c(-c3ccc(C(C)C)cc3)c(=O)c2=O)CC1 | >57 | -12%
O=C1C2CCCN2C(c2cccc(Br)c2)N1c1ccc(F)cc1 (configuration not stated) | >57 | -2%

Retrieved by compound from the list above (2):
SMILES | Prx2 Sm inh | LT uptake inh
CCOC(=O)CCN1C(=O)[C@H]2[C@H]3[C@H](O)[C@H](O)C/C(=N/OCC(C)C)[C@@H]3CC[C@@H]2C1=O | · | 0%[1.6 µM]
Cn1c(=O)c(=O)n(C)c2cc(S(=O)(=O)N3CCN(Cc4ccccc4)CC3)ccc21 | >57 | -11%

Part of the list above, with two lines to a compound:
Sequence of screens – Prx2 Sm inh, LT uptake inh
Cc1ccc(OCC(=O)NCc2ccccn2)cc1
  >57, 12%
CN1CCN(C(=O)CN2C(=O)CC(C)(C)S(=O)(=O)c3ccccc32)CC1
  >57, -4%
CCOC(=O)CCN1C(=O)[C@H]2[C@H]3[C@H](O)[C@H](O)C/C(=N/OCC(C)C)[C@@H]3CC[C@@H]2C1=O
  ·, 0%[1.6 µM]
COc1ccc(NC(=O)c2ccc(=O)oc2)cc1
  >57, 3%
Cn1c(=O)c(=O)n(C)c2cc(S(=O)(=O)N3CCN(Cc4ccccc4)CC3)ccc21
  >57, -11%
CC1(C)NC(=O)NC2(C)NC(=O)NC(C)(C)C12 (configuration not stated)
  >57, ·
CCOC(=O)N1CCN(c2c(-c3ccc(C(C)C)cc3)c(=O)c2=O)CC1
  >57, -12%
